# High-throughput results from PubChem BioAssay.
# LANA-H2B inh: blocks KSHV LANA binding to histone H2A/H2B; Q9QR71; AID 2629; cell-free LANA-H2A/H2B peptide, fluorescence polarization; inhibition, % (test concentration not listed); hit rate 0.6% among 320,000; in the data active = inhibition mostly above about 10%, no sharp cut-off; inactive = mostly below about 6.7%;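 also: stock transfer was 7.5 nL into about 10 µL; 0% = median of vehicle wells and 100% = median of positive control wells; one replicate is shown; the record names a cut of 25% in any replicate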
# B2AR ag: activates human beta-2 adrenergic receptor causing internalization | P07550 | Am2.2-beta2AR cells, FAP receptor internalization, flow cytometry; reference of the scale not given here | response, % (no concentration beside the values) | hit rate 0.43% among 340,000 | AID 504454;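 active = response above a set limit, near 3 SD of response in nonfluorescent compounds, cut at about 42% in these data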;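 also: stock transfer was 100 nL into about 11 µL; a reference agonist was the positive control; negative values mostly stem from fluorescent compounds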
# Target sequence (P07550 whole entry, looked up): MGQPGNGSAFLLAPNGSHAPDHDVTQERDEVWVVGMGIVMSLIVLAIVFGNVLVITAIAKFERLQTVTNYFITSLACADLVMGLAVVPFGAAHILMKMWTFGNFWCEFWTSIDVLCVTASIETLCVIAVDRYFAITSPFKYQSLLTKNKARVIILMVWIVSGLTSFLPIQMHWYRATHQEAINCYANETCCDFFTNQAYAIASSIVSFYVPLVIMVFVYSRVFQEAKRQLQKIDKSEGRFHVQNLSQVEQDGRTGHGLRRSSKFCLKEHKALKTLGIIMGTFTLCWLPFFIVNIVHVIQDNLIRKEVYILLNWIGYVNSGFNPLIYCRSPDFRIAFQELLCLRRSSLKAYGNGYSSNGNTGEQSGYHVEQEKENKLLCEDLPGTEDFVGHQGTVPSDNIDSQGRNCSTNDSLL
# HNF4A DNA FP: change in binding of human HNF4 alpha to DNA; hit rate 0.3% among 360,000; HNF4a-FITC DNA binding, fluorescence polarization, 1 h; AID 1224865; activity change, % at 10 µM; P41235; in the data active = activity change above about 30%, passing the limit was not always enough;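 also: controls were the assay level and a saturating level of protein; the project sought stronger binding though the title names inhibitors; some compounds called inactive have numbers as strong as hits; positive values seem to mean higher polarization but the record does not say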
# FGF22 binding: shifts melting point of recombinant human FGF22; recombinant FGF22 thermal shift, SYPRO orange fluorescence; percent of sucrose octasulfate shift, DMSO zero; calls only at 9.99 µM; AID 651658; Q9HCT0; hit rate 1.5% among 340,000;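 active = melting point raised past a set limit in the mean and every replicate; three in four hits are not shown here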
# Target sequence (Q9HCT0 whole entry, looked up): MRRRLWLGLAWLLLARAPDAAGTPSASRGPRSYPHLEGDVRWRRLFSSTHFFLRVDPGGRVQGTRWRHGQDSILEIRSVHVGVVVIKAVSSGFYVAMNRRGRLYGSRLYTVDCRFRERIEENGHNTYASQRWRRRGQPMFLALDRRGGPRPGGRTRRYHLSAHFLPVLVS
# UCH37 inh: human UCH37 deubiquitinating enzyme inhibition | Q9Y5K5 | purified proteasome/UCH37, Ub-AMC cleavage fluorescence | inhibition, % (no concentration beside the values) | hit rate 0.33% among 330,000;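 active = mean of two replicates above 20%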;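 also: 0% = compound-free wells with enzyme and 100% = wells lacking proteasome; stock transfer was 100 nL into about 20 µL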
#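 Assay system: Proteasome-bound UCH37. Buffer or medium: pH 7.4 Tris-HCl (50 mM) with ovalbumin, ATP-MgCl2, DTT. Incubation: 30 min preincubation with enzyme, 25 min cleavage at room temperature. Measured by: fluorescence, ex 355 nm, em 460 nm. Read-out basis: percent inhibition. Control set: wells without proteasome as full block, compound-free enzyme plus substrate as uninhibited.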
# ALR inh: inhibitors of human sulfhydryl oxidase ALR | P55789 | purified ALR, DTT oxidation, H2O2 HRP-luminol luminescence | inhibition, % (no concentration beside the values) | hit rate 3.8% among 290,000 | AID 485317;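 active = mean and each replicate at 75% or more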;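 also: stock transfer was 7.5 nL into about 7.5 µL; 0% = neutral wells and 100% = wells with inactivated enzyme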
# Target sequence (P55789 whole entry, looked up): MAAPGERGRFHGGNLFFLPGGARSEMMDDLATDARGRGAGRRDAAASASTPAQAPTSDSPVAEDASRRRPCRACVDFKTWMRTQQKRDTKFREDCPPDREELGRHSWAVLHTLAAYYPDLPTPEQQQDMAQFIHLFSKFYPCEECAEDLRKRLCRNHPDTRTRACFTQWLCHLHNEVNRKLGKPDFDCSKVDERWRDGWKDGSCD
# Ecoli growth: inhibitors of Escherichia coli growth; OD600, 23 h; active compounds read low; OD600 absorbance (concentration not given with the values); hit rate 0.21% among 330,000;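 active = OD600 absorbance below the run mean of sample wells minus 3.6 SD, in any replicate, cut at about 0.56 in these data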;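 also: stock transfer was 300 nL into about 60 µL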
# An asterisk follows results filed as active; i = inactive; / = no result given.
LANA-H2B inh,B2AR ag,HNF4A DNA FP,FGF22 binding,UCH37 inh,ALR inh,Ecoli growth,structure
-4.1,9.9,-0.1,i,-0.1,6.1,0.642,CC(=O)N1N=C(c2cccc(NS(=O)(=O)c3ccc(C)cc3)c2)CC1c1ccco1 (centres undefined)
-4.7,-0.5,-4.0,i,2.4,-5.3,0.66,CCC(=O)N1c2ccccc2NC2=C(C(=O)CC(C)(C)C2)C1c1cccnc1 (centres undefined)
1.9,-3.3,4.7,/,-8.6,-2.6,0.648,c1ccc(-c2noc(-c3ccc4ccccc4c3)n2)nc1
6.9,6.4,1.6,i,10.1,-34.7,0.684,Cc1ccc(C)c(NC(=S)N=Nc2c(O)n(C)c3ccc(S(=O)(=O)N4CCOCC4)cc23)c1
2.5,-7.9,5.1,i,-2.6,-16.2,0.703,Cc1ccccc1Nc1nc(N)nc(CSc2nnc3ccccn23)n1
-2.5,2.6,-4.4,i,4.5,39.6,0.629,CC(C)(C)c1cc(C(=O)CCN2CCOCC2)cc(C(C)(C)C)c1O
8.9,-1.5,-5.4,i,1.8,-19.1,0.695,Cc1ccc(S(=O)(=O)Cc2ccc(C(=O)N3CCCCC3C)cc2)cc1 (centres undefined)
-0.9,-5.4,-2.2,/,0.4,-3.3,0.8,Cc1nn(Cc2ccc(Cl)c(Cl)c2)c(C)c1NC(=O)c1cn(-c2ccccc2)nc1-c1ccccc1
-2.2,-0.6,-2.5,i,1.8,26.0,/,O=C(O)C1=C[C@@H](c2ccc(C(F)(F)F)cc2)C[C@@H](OCCCCO)O1
-7.1,2.0,-7.0,/,2.3,-11.4,0.698,Cc1c([N+](=O)[O-])cc(C(=O)Oc2ccc(Br)cc2C(=S)N2CCCCC2)cc1[N+](=O)[O-]

# In a second layout: entries from further up.
CC(C)(C)c1cc(C(=O)CCN2CCOCC2)cc(C(C)(C)C)c1O
  LANA-H2B inh = -2.5; B2AR ag = 2.6; HNF4A DNA FP = -4.4; FGF22 binding = i; UCH37 inh = 4.5; ALR inh = 39.6; Ecoli growth = 0.629
CC(=O)N1N=C(c2cccc(NS(=O)(=O)c3ccc(C)cc3)c2)CC1c1ccco1 (centres undefined)
  LANA-H2B inh = -4.1; B2AR ag = 9.9; HNF4A DNA FP = -0.1; FGF22 binding = i; UCH37 inh = -0.1; ALR inh = 6.1; Ecoli growth = 0.642

# Other structures follow.
LANA-H2B inh,B2AR ag,HNF4A DNA FP,FGF22 binding,UCH37 inh,ALR inh,Ecoli growth,structure
1.6,-9.9,0.4,i,0.6,-1.3,0.691,Cc1ccccc1-c1nc(CN2CCC(C(=O)N3CCC(C(N)=O)CC3)CC2)c(C)o1
-1.8,5.0,0.5,i,0.9,11.4,0.679,COc1ccc2[nH]c(C)c(CCNC(=S)Nc3ccc(C)cc3)c2c1
/,-2.9,-0.6,i,2.1,/,0.662,COc1ccccc1CNC(=O)c1ccc(S(=O)(=O)N(C)c2ccccc2)cc1
/,-13.6,3.6,/,1.7,-2.9,/,c1ccc2c(c1)OCC(CNc1ncnc3sccc13)O2 (centres undefined)
5.5,2.7,-2.5,i,2.2,-4.9,0.652,COc1ccc(S(=O)(=O)N2CCSCC2)cc1
-3.0,12.0,1.4,i,4.8,71.6,0.701,Cc1[nH]nc2c1C(c1ccc(N(C)C)cc1)C1=C(CC(C)(C)CC1=O)N2 (centres undefined)
4.6,-6.6,0.4,/,2.9,-6.0,0.711,COc1ccc(NC(=O)CCCn2c(=O)[nH]c3ccccc3c2=O)cc1
1.5,111.8*,2.0,/,-227.0,-1.5,0.76,Cc1ccc(Cn2ccc(NC(=O)c3cc4nc(-c5ccco5)cc(C(F)(F)F)n4n3)n2)cc1
-1.3,11.8,-0.9,i,2.8,-2.4,0.701,O=C(Nc1ccccc1N1CCOCC1)C1=NN(c2c(F)c(F)cc(F)c2F)C(=O)CC1
-7.6,2.0,2.9,i,3.2,-2.2,0.655,Cc1ccc(CS(=O)(=O)c2cn(CC(=O)Nc3ccon3)c3ccccc23)cc1

# Further structures
LANA-H2B inh,B2AR ag,HNF4A DNA FP,FGF22 binding,UCH37 inh,ALR inh,Ecoli growth,structure
-4.5,-2.1,-2.3,i,1.1,-0.7,0.707,CN(CC(=O)Nc1ccccc1Br)C(=O)c1cc(Cl)nc2ccccc12
2.1,-2.1,-0.7,i,-0.7,94.0*,0.688,COc1ccc(-n2c(-c3ccc(OC)c(OC)c3)n[nH]c2=S)cc1
-3.8,-0.1,1.1,i,0.9,-2.6,0.726,Cc1c(C(=O)O)nnn1-c1nonc1N
2.6,3.4,2.0,i,6.9,-0.4,0.719,O=C(NC1CCCCC1)C1CCC(CNS(=O)(=O)c2cccc3nsnc23)CC1 (centres undefined)
-6.7,8.3,2.0,i,10.2,98.2*,0.679,CCOc1cc(/C=C2/C(=O)NN(c3cccc(Cl)c3)C2=O)ccc1O
-2.0,0.2,-2.7,/,6.5,-2.5,0.735,Cc1nn(Cc2ccccc2)c(C)c1NC(=O)CSc1nc2c(c(C(F)(F)F)n1)CCc1ccccc1-2
3.6,3.5,-1.6,/,-0.7,-12.8,0.744,CC(C)(C)NC(=O)C1CCN(C(=O)c2ccc(-c3ccccc3)cc2)CC1
-2.9,-4.5,0.9,i,1.6,0.5,0.811,CN(C(=O)c1ccc(NC(=O)Cc2ccc(NC(=O)C3CCN(C(=O)C4CC4)CC3)cc2)cc1)C1CC1
-9.4,-1.5,-3.0,i,2.3,-12.0,0.728,COc1cccc(NC(=O)C(c2ccccc2)N2CCCCC2)c1 (centres undefined)
/,7.2,-0.8,/,2.3,/,0.702,CS(=O)(=O)N(CC(=O)NCc1ccccc1)Cc1ccc(Cl)cc1

# More structures follow:
LANA-H2B inh,B2AR ag,HNF4A DNA FP,FGF22 binding,UCH37 inh,ALR inh,Ecoli growth,structure
4.7,-6.8,-0.1,i,0.6,5.5,0.697,COc1cccc(-c2cc(C(=O)N3CCCCCC3)no2)c1
-1.6,8.4,7.0,i,4.0,-1.1,0.687,O=C(c1ccco1)N1CCN(S(=O)(=O)c2ccc(S(=O)(=O)NC3CC3)cc2)CC1
-3.4,-3.1,3.8,i,2.6,-24.3,0.68,O=C(CN1CCN(c2ccccn2)CC1)Nc1ccccc1F
-2.5,-4.5,-0.3,i,-0.1,-9.4,0.665,CCCN(CC(=O)Nc1ccccc1OC)C(=O)CSc1ccc(Br)cc1C
0.9,-7.1,-2.2,/,8.2,-13.0,0.693,CCN1CCN(CC(=O)c2c(C)n(C)c3ccc(OC)cc23)CC1
0.1,-5.4,0.3,i,/,0.1,/,C=CCOc1ccccc1/C=N/n1nnnc1N
-1.5,-2.0,-3.3,i,4.3,-0.8,0.708,CC(=O)N1N=C(c2ccccc2)CC1c1ccc2c(c1)OCO2 (centres undefined)
-2.4,-4.0,-3.5,i,1.4,7.0,0.703,COc1cc(OC)c(CN2CCCCCCC2)cc1Br
2.9,3.0,-2.5,i,-5.0,-6.5,0.694,COC(=O)c1sccc1NC(=O)c1ccc(C)cc1
4.5,6.7,-0.6,/,1.9,-4.3,0.703,CCN(CC)S(=O)(=O)c1ccc(NC(=O)c2ccccc2N(C)S(C)(=O)=O)cc1

# (more compounds)
LANA-H2B inh,B2AR ag,HNF4A DNA FP,FGF22 binding,UCH37 inh,ALR inh,Ecoli growth,structure
0.4,2.5,-3.5,i,4.9,-3.5,0.695,CCCCN(C)CCNC(=O)CSCc1ccc(C)cc1
7.3,6.5,11.2,i,/,/,/,CC(NC(=O)c1ccccc1F)c1nnc(SCC(=O)NC2CCCC2)n1C (centres undefined)
-2.8,4.1,-0.6,i,4.9,0.2,0.693,O=C(COC(=O)c1cccc(C(=O)OCC(=O)NCc2ccc(F)cc2)n1)NCc1ccc(F)cc1
-0.2,8.2,3.2,i,-43.1,-0.6,0.679,CCOC(=O)C1=C(C)NC(C)=C(C(=O)OCC)C1C(=O)OCC(=O)NCc1ccccc1OC
3.2,14.6,3.7,/,-0.7,-1.0,0.651,Cc1ccc(C)n1NC(=O)c1ccco1
-5.6,3.1,3.7,i,-0.9,-4.2,0.677,COC(=O)c1sccc1NC(=O)c1cccc(Cl)c1
-1.8,23.6,97.6,/,-2.1,-3.2,0.733,CSc1nc(N(C)NC(=O)c2cccc(C)c2)c2ccccc2n1
-0.9,-4.9,18.7,i,7.3,-11.4,0.65,COc1cccc(NC2=Nc3cccc4cccc2c34)c1
0.6,4.6,2.7,/,-34.7,4.9,0.742,CC(C)Cc1nc(N2CCN(C(=O)c3ccco3)CC2)c(C#N)c2c1CCC2
0.6,6.8,-0.3,/,3.0,-0.2,0.674,Cc1cc(C)n(-c2ccc(C(=O)Nc3ccc(C)c(S(=O)(=O)N(C)C)c3)cc2)n1

# (listing goes on)
LANA-H2B inh,B2AR ag,HNF4A DNA FP,FGF22 binding,UCH37 inh,ALR inh,Ecoli growth,structure
1.5,-6.9,-2.5,i,5.8,-2.0,0.721,CCOc1ccc(N2CC(C(=O)NCCN3C(=O)S/C(=C\c4cccnc4)C3=O)CC2=O)cc1 (centres undefined)
4.2,4.2,3.3,i,/,4.9,/,O=C(Cn1cncn1)N/N=C/c1cc([N+](=O)[O-])ccc1O
-4.4,3.4,1.6,/,0.2,1.6,0.691,CC(C)CC(OC(=O)c1nsc(Cl)c1Cl)C(=O)NCc1cccs1 (centres undefined)
3.3,-0.8,0.9,i,3.3,-3.9,0.666,CC(C)N(C(=S)NCc1ccccc1)C(C)C
-1.3,1.4,8.2,i,2.6,-9.3,0.673,COc1ccccc1C(=O)OCC(=O)Nc1cc(S(=O)(=O)N2CCOCC2)ccc1N1CCCC1
0.3,-2.8,8.6,/,1.0,74.6,0.653,COc1cc(N)c(Cl)cc1NC(=O)c1ccccc1
1.8,-0.4,-1.8,i,-1.8,-6.2,0.63,O=C(Nc1nc2ccc(F)cc2s1)C1=COCCO1
1.3,4.2,-3.8,i,-2.4,-2.2,0.694,O=C(Nc1ccccc1)c1ccc(NC(=O)c2cccs2)cc1
-0.4,2.4,-1.9,i,5.2,0.0,0.712,CCOc1ncccc1C(=O)NNC(=O)c1cccc(S(=O)(=O)Nc2ccc(OC)cc2)c1
-1.0,3.5,-2.6,/,6.0,/,0.644,COC(=O)N1CCN(c2ccc(C(C)=O)cc2)CC1
0.3,-7.5,2.9,/,-1.6,-3.0,0.727,CCOc1cc(CNn2cnnc2)ccc1OCC(=O)NC1CCCCC1
-11.6,7.3,-10.8,i,8.9,-9.8,0.61,C/C(O)=c1/c(=O)nc2cccc3c2=c1c1ccccc1c3=O
5.7,6.3,2.2,i,4.8,-3.0,0.731,Cc1ccc(C(C(=O)NCc2ccco2)N(C(=O)CNC(=O)c2cccs2)c2ccc(C)cc2C)cc1 (centres undefined)

# By substructure, the compounds so far containing a Cl atom
LANA-H2B inh,B2AR ag,HNF4A DNA FP,FGF22 binding,UCH37 inh,ALR inh,Ecoli growth,structure
-0.9,-5.4,-2.2,/,0.4,-3.3,0.8,Cc1nn(Cc2ccc(Cl)c(Cl)c2)c(C)c1NC(=O)c1cn(-c2ccccc2)nc1-c1ccccc1
-4.5,-2.1,-2.3,i,1.1,-0.7,0.707,CN(CC(=O)Nc1ccccc1Br)C(=O)c1cc(Cl)nc2ccccc12
-6.7,8.3,2.0,i,10.2,98.2*,0.679,CCOc1cc(/C=C2/C(=O)NN(c3cccc(Cl)c3)C2=O)ccc1O
/,7.2,-0.8,/,2.3,/,0.702,CS(=O)(=O)N(CC(=O)NCc1ccccc1)Cc1ccc(Cl)cc1
-5.6,3.1,3.7,i,-0.9,-4.2,0.677,COC(=O)c1sccc1NC(=O)c1cccc(Cl)c1
-4.4,3.4,1.6,/,0.2,1.6,0.691,CC(C)CC(OC(=O)c1nsc(Cl)c1Cl)C(=O)NCc1cccs1 (centres undefined)
0.3,-2.8,8.6,/,1.0,74.6,0.653,COc1cc(N)c(Cl)cc1NC(=O)c1ccccc1

# An excerpt; count on the stated rates, not on these rows.
